High-throughput results: PubChem, several laboratories
PhoP inhibition = PhoP-dependent GFP reporter repression – Salmonella Typhimurium, primary screen (AID 1863) | S. Typhimurium PhoP-regulated promoter GFP reporter, 4 h; higher % means a stronger effect | 300,000 compounds, 0.16% hits | inhibition, % at 50 µM, or IC50 in µM where a hit was titrated;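 active = inhibition over 29.93%, a cutoff 3 SD above the screen mean, later confirmed by dose response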;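 also: 0% = low Mg2+ inducing control and 100% = high Mg2+ repressing control; strong numbers were not always called active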
Myeloid diff 2 = promotes myeloid progenitor differentiation; AID 624256; ER-HoxA9 myeloid progenitors, lysozyme-GFP differentiation, flow cytometry; calls only at 10 µM; 360,000 compounds, 1% hits;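 active = normalized GFP-positive differentiation at or above the plate's own cutoff, the solvent-only control mean plus 3 SD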;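 also: cells exposed to compound for four days before flow analysis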
HIV fusion peptide = inhibitors of HIV fusion peptide binding, primary screen, biochemical, uHTS, fluorescence dequenching (AID 1986); 290,000 compounds, 0.3% hits; cell-free peptide binding, fluorescence dequenching, 30 min; higher % means a stronger effect; one-dose inhibition, % at 20 µM; IC50 in µM for titrated hits; in the data active = inhibition mostly above about 52%, no sharp cut-off; inactive = mostly below about 76%; also: some results filed as inactive read as strong as hits
LYP inhibition = inhibitors of LYP phosphatase, biochemical, fluorescence intensity, uHTS (AID 1779); recombinant LYP phosphatase, fluorescence intensity; higher % means a stronger effect; inhibition, % at 11.5 µM; hits with a dose series show IC50 in µM; 290,000 compounds, 0.054% hits; in the data active = inhibition above about 50%;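 also: plate controls were vehicle with enzyme for no effect and no enzyme for full effect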
SIAH1 antagonists = blockers of Siah-1 interaction with plectin peptide – biochemical, fluorescence polarization, rhodamine-plectin, uHTS, primary screen (AID 1817); displacement, % at 20 µM, or IC50 in µM where a hit was titrated; 290,000 compounds, 0.02% hits; Siah-1 / rhodamine-plectin peptide fluorescence polarization; higher % means a stronger effect;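 active = displacement of at least 50% at 20 µM, with a fluorescence ratio check between 0.3 and a set limit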;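 also: plate controls were Siah plus tracer with DMSO for no effect and tracer alone without Siah for full effect; strong numbers were not always called active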
Myeloid diff 2 GFP+ MAC1+ % = second read-out of Myeloid diff 2, no call of its own (marks repeat the call); GFP+ MAC1+ double positive, %; measured here: differentiation confirmed by MAC1 staining
Numbers without * were called inactive; & = joins results of further samples. The list is partial (hit frequency here may not be typical).

Screening Clc1ccc(CSC(Cn2ccnc2)c2ccc(Cl)cc2Cl)cc1 (stereo not given) returned PhoP inhibition 0%&-4%, Myeloid diff 2 inactive, HIV fusion peptide -1.8%, LYP inhibition -1%, SIAH1 antagonists 2% and Myeloid diff 2 GFP+ MAC1+ % 4.8.
OC(Cn1c2ccccc2c2ccccc21)C[n+]1cccc2ccccc21 (stereo not given) was read as PhoP inhibition 6%, Myeloid diff 2 inactive, HIV fusion peptide -0.1%, LYP inhibition -9%, SIAH1 antagonists 2% and Myeloid diff 2 GFP+ MAC1+ % 0.9.
CN(C)C1C(=O)C(C(N)=O)=C(O)C2(O)C(=O)C3=C(O)c4c(O)cccc4C(C)(O)C3CC12 (stereo not given) was read as PhoP inhibition 3.5µM*, Myeloid diff 2 inactive, HIV fusion peptide 14%, LYP inhibition -2%, SIAH1 antagonists 20% and Myeloid diff 2 GFP+ MAC1+ % 1.8.
C=C(C)CSc1nnc([C@@H](N)Cc2c[nH]c3ccccc23)o1 was read as PhoP inhibition 0%, Myeloid diff 2 inactive, HIV fusion peptide -0.7%, LYP inhibition -10%, SIAH1 antagonists -3% and Myeloid diff 2 GFP+ MAC1+ % 0.1.
Screening CCCCC/C(=N\O)c1c[nH]c2ccccc12 returned PhoP inhibition 4%, Myeloid diff 2 inactive, HIV fusion peptide -1.0%, LYP inhibition -10%, SIAH1 antagonists 9% and Myeloid diff 2 GFP+ MAC1+ % 5.4.
`CC(C)CCC1(CN2CCCC2=O)C(=O)NC(=O)NC1=O` gave PhoP inhibition 2%, HIV fusion peptide -0.7%, LYP inhibition -11% and SIAH1 antagonists 0%.
Screening O=P(C(c1ccc2c(c1)OCO2)N1CCOCC1)(N1CCOCC1)N1CCOCC1 (stereo not given) returned PhoP inhibition 0%, Myeloid diff 2 inactive, HIV fusion peptide -0.9%, LYP inhibition -2%, SIAH1 antagonists -2% and Myeloid diff 2 GFP+ MAC1+ % 0.6.
`O=[N+]([O-])c1ccc(C2C3C(c4ccccc4)=NC4(CCCCC4)N32)cc1` (stereo not given) gave PhoP inhibition 7%, Myeloid diff 2 inactive, HIV fusion peptide -0.5%, LYP inhibition 0%, SIAH1 antagonists -2% and Myeloid diff 2 GFP+ MAC1+ % 2.2.
`O=[N+]([O-])c1ccc(N2CCNCC2)cc1NCC1CCCO1` (stereo not given) gave PhoP inhibition 16%, Myeloid diff 2 inactive, HIV fusion peptide -2.1%, LYP inhibition 2%, SIAH1 antagonists 2% and Myeloid diff 2 GFP+ MAC1+ % 0.2.
`CCCC(=O)NC(Oc1ccc(Cl)cc1Cl)C(Cl)(Cl)Cl` (stereo not given) gave PhoP inhibition -3%, HIV fusion peptide 1.7%, LYP inhibition -4% and SIAH1 antagonists 2%.
For CCCCCn1c(N)c(C(=O)NCc2cccs2)c2nc3ccccc3nc21 the results were PhoP inhibition 36%, HIV fusion peptide -5.6%, LYP inhibition -2% and SIAH1 antagonists 2%.

3 structures already listed, arranged by molar mass, ascending.
OC(Cn1c2ccccc2c2ccccc21)C[n+]1cccc2ccccc21 (stereo not given) was read as PhoP inhibition 6%, Myeloid diff 2 inactive, HIV fusion peptide -0.1%, LYP inhibition -9%, SIAH1 antagonists 2% and Myeloid diff 2 GFP+ MAC1+ % 0.9.
`CCCC(=O)NC(Oc1ccc(Cl)cc1Cl)C(Cl)(Cl)Cl` (stereo not given) gave PhoP inhibition -3%, HIV fusion peptide 1.7%, LYP inhibition -4% and SIAH1 antagonists 2%.
For CCCCCn1c(N)c(C(=O)NCc2cccs2)c2nc3ccccc3nc21 the results were PhoP inhibition 36%, HIV fusion peptide -5.6%, LYP inhibition -2% and SIAH1 antagonists 2%.

Structures above with nitrogen in an aromatic ring (5):
Screening Clc1ccc(CSC(Cn2ccnc2)c2ccc(Cl)cc2Cl)cc1 (stereo not given) returned PhoP inhibition 0%&-4%, Myeloid diff 2 inactive, HIV fusion peptide -1.8%, LYP inhibition -1%, SIAH1 antagonists 2% and Myeloid diff 2 GFP+ MAC1+ % 4.8.
OC(Cn1c2ccccc2c2ccccc21)C[n+]1cccc2ccccc21 (stereo not given) was read as PhoP inhibition 6%, Myeloid diff 2 inactive, HIV fusion peptide -0.1%, LYP inhibition -9%, SIAH1 antagonists 2% and Myeloid diff 2 GFP+ MAC1+ % 0.9.
C=C(C)CSc1nnc([C@@H](N)Cc2c[nH]c3ccccc23)o1 was read as PhoP inhibition 0%, Myeloid diff 2 inactive, HIV fusion peptide -0.7%, LYP inhibition -10%, SIAH1 antagonists -3% and Myeloid diff 2 GFP+ MAC1+ % 0.1.
Screening CCCCC/C(=N\O)c1c[nH]c2ccccc12 returned PhoP inhibition 4%, Myeloid diff 2 inactive, HIV fusion peptide -1.0%, LYP inhibition -10%, SIAH1 antagonists 9% and Myeloid diff 2 GFP+ MAC1+ % 5.4.
For CCCCCn1c(N)c(C(=O)NCc2cccs2)c2nc3ccccc3nc21 the results were PhoP inhibition 36%, HIV fusion peptide -5.6%, LYP inhibition -2% and SIAH1 antagonists 2%.
